# Screening results as filed in PubChem.
# HIV TAR-Tat – TAR RNA-Tat peptide displacers, HIV-1, primary screen, biochemical, FRET, FAM/TAMRA-labeled Tat | HIV-1 TAR RNA, Tat peptide displacement FRET; active compounds read high | z-score (no concentration beside the values) | 100,000 tested, 0.6% active | AID 1259389, 2018;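 note: score is relative to mean and SD of negative controls; some compounds called inactive have numbers as strong as hits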
# CDC25B-CDK2 inh – primary biochemical HTRF screen for blockers of M-phase inducer phosphatase 2 binding to CDK2/cyclin A; 94,000 tested, 0.72% active; P30305+P24941; HTRF CDC25B-CDK2/CyclinA binding, anti-His/anti-Flag; active compounds read high; z-score (test concentration not listed);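 note: score is relative to mean and SD of negative controls; strong numbers were not always called active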
# * hit, by the source's call; . = not tested or not shown.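 Rule for the calls: active = z-score from 3 up in half or more of its runs; inactive = the rest.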
SMILES,HIV TAR-Tat,CDC25B-CDK2 inh
O=C(C1CC1)N1CCCc2cc(NS(=O)(=O)c3ccccc3F)ccc21,2.2,.
CC(=O)N1N=C(c2ccccc2)OC1COc1cccc2ccccc12 (stereo not drawn),-0.04,.
COc1ccc(-c2noc(-c3nnn(-c4cc(C)ccc4C)c3N)n2)cc1,0.05,.
CCCN(CCC)S(=O)(=O)c1ccc(C(=O)O)cc1,0.56,.
CC1(C)CC(=O)C2=C(C1)N(c1ccc(S(N)(=O)=O)cc1)C(N)=C(C#N)C2c1ccc(Cl)cc1 (stereo not drawn),0.8,-0.91
Cc1csc2nc(CSc3nnc(-c4ccccc4)n3C)cc(=O)n12,0.01,.
C=C(C)c1cccc(C(C)(C)NC(=O)Nc2ccccc2F)c1,0.08,-0.57
O=C(CSc1nc(-c2ccccc2)cc(=O)[nH]1)NC1CCCC1,-0.03,1.7
CSc1cccc(NC(=O)c2sc3nc4n(c(=O)c3c2C)CCCCC4)c1,2.6,.
COC(=O)c1ccc(-c2ccco2)n1CC(=O)NCCCN1CCCC1=O,-2.9,.
C=CCN1C(=O)C(O)(CC(=O)c2cc(OC)ccc2OC)c2cc(Br)ccc21 (stereo not drawn),-0.19,-1
O=C(O)c1cnn2c3c(cnc12)CCCC3,1.4,-0.88
CC(C)Oc1ccc(-c2nc3ncccn3c2NC2CCCC2)cc1,0.39,.
CSc1nc(NC(=O)NS(=O)(=O)c2ccccc2C(F)(F)F)nc(-c2ccccn2)n1,.,0.47
Cn1c(SCc2ccccc2)nc(=O)c2c1NC(=O)CC2c1ccc(F)cc1F (stereo not drawn),-0.44,-0.29
CC(C)n1nnc2c(=O)oc3ccccc3c21,.,0.76
O=C(CN1C(=O)CSc2ncccc21)NCCCN1CCc2ccccc2C1,-0.59,0.05
Cc1c(C)n(-c2ccc(F)c(F)c2)c2ncnc(Cl)c12,1.7,-1.2
COc1ccc(C2SCC(=O)N2CCCN(C)C)cc1OC (stereo not drawn),0.06,0.51
O=C1CC(NCc2ccc(Cl)cc2)C(=O)N1c1ccc(Br)cc1 (stereo not drawn),0.38,-0.44
O=C(Nc1ccc(F)cc1F)N1CCN(Cc2nc3cccnc3n2-c2ccccc2)CC1,1.8,.
CC(C)n1c(C(F)(F)F)nc2cc(C(=O)Nc3ccc(Cl)cc3)ccc21,.,0.06
CCc1ccc(CN(C(=O)c2cc(=O)c3ccc(C)c(C)c3o2)C2CCS(=O)(=O)C2)cc1 (stereo not drawn),0.66,-0.7
Cc1cc(NCCCN2CCOCC2)n2nc(C(F)(F)F)c(-c3ccc(F)cc3)c2n1,1.7,-0.26
CSc1nc2ccc3nc(NC(=O)CN4C(=O)CCC4=O)sc3c2s1,.,-0.06
# The list goes on:
SMILES,HIV TAR-Tat,CDC25B-CDK2 inh
Cc1ccc(C)c(N2CCN(S(=O)(=O)c3ccc(-c4ccc(=O)[nH]n4)s3)CC2)c1,0.32,.
CCOc1ccc(NC(=O)C2C3C=CC4(O3)C2C(=O)N(C(C)CC)C4C(=O)NC2CCCCC2)cc1 (stereo not drawn),-1,-0.82
C=CCN(C(=O)c1sc2nc3n(c(=O)c2c1C)CCCC3)c1ccccc1,2,.
CC1CCN(CCCNS(=O)(=O)c2csc(C(N)=O)c2)CC1,0.7,.
Cc1cc(NC(=O)C2=CC(c3ccco3)=NS(=O)(=O)N2C)n(-c2ccccc2)n1,1.4,-2.7
O=C(NCCN1CCOCC1)C1=Cc2ccccc2OC1,0.83,.
Nc1c(-c2nc(-c3ccccc3Cl)no2)nnn1-c1ccc(Br)cc1,-0.27,.
Cc1ccc(NS(=O)(=O)c2cn(C)c(C)n2)cc1Cl,0.91,.
CSCC[C@@H](C(=O)Nc1ccc2c(c1)OCCO2)N1Cc2ccccc2C1=O,.,-0.9
CC(=O)c1ccc(NC(=S)NC(NC(=O)c2cccc(Cl)c2)C(Cl)(Cl)Cl)cc1 (stereo not drawn),.,3.2*
O=C(c1ccc(Br)cc1)C(C(=O)N1CCN(c2ccccc2)CC1)n1ccccc1=O (stereo not drawn),-1.5,-1.4
CCS(=O)(=O)c1nc(S(=O)(=O)c2ccc(C)cc2)c(NCCCN2CCCC2=O)s1,0.77,-1.1
O=C(NCc1cccs1)c1c[nH]c2ccc(S(=O)(=O)Nc3ccc4c(c3)OCCO4)cc2c1=O,0.64,.
C=CCn1c(CCCNC(=O)C2CCCCC2)nc2ccccc21,1.4,-0.6
NC(=O)c1nc(-c2ccccc2Cl)nc2c1[nH]c(=O)n2-c1cccc(Cl)c1,0.98,.
O=C(NC1CCCCC1)NC1CCN(c2nc3ccccc3s2)CC1,1.3,-1.3
CCc1ccc(-n2c(SCc3cc(=O)n4c(C)cccc4n3)nc3[nH]ncc3c2=O)cc1,.,-2.4
CCCn1c(C(O)c2cc(OC)c(OC)c(OC)c2)nc2ccccc21 (stereo not drawn),.,-1
O=C(NCCCN1CCCC1)C1CCCN(c2nnc(N3CCCC3=O)s2)C1 (stereo not drawn),1.1,.
CCOC(=O)N1CCN(c2cc(C(F)(F)F)cc(C(F)(F)F)n2)CC1,.,-0.12
C=CCc1c(C)nc(N2CCSCC2)[nH]c1=O,.,-0.89
O=S(=O)(Nc1cc(F)ccc1F)c1ccc(-n2cccn2)cc1,0.49,.
CCOc1ccc(NC(=O)c2sc3nc4n(c(=O)c3c2C)CCC4)cc1,1.4,.
CCCOC(=O)C(C)Oc1ccc2c3c(c(=O)oc2c1)CCC3 (stereo not drawn),.,-1.3
CS(=O)(=O)c1ncc(Cl)c(C(=O)N2CCN(c3cccc(Cl)c3)CC2)n1,1.7,-2.8
# (cont.)
SMILES,HIV TAR-Tat,CDC25B-CDK2 inh
CC(C)(C)S(=O)(=O)/C(C#N)=C/c1sccc1C1OCCO1,.,-1.6
Nc1nnc(SCc2ccc(Cl)cc2)s1,.,-0.63
O=C(NCCCN1CCCC1)c1cnn(-c2ccccc2)c1-n1cccc1,2.6,-0.84
Cc1ccc2nc(C3=C(O)CN(CCCOC(C)C)C3=N)[nH]c2c1,-0.03,-2.1
CCOC(=O)N1CCN(c2c(N3CCN(c4cccc(Cl)c4)CC3)c(=O)c2=O)CC1,0.8,0.05
CC1=CCC2C(=O)N(c3ncccn3)C(=O)C2C1 (stereo not drawn),1,-1.3
COc1cccc(Cn2cc(C(=O)c3ccc(OC)c(OC)c3)c(=O)c3cc4c(cc32)OCCO4)c1,1.2,-1.6
Cc1ccc(Cc2c(C)nc3nc(CO)[nH]n3c2=O)cc1,-2.2,-0.65
O=S(=O)(c1ccc(-c2cc(C(F)(F)F)ccn2)s1)N1CCCC1,.,-0.66
CCOC(=O)c1cc(-c2ccc(S(=O)(=O)NC3CCCCC3)s2)on1,0.35,.
O=C(Oc1ccc(Cl)cc1)c1sc2sccc2c1Cl,.,-1.3
COC(=O)c1c(NC(=O)c2sc3ccccc3c2Cl)sc2c1CCN(C)C2,-8.6,.
Cn1c(=O)c2c(nc(Sc3ccccc3NC(=O)Cc3cccs3)n2C)n(C)c1=O,-0.42,-2.6
O=S(=O)(NCCc1csc(-c2ccc(F)cc2)n1)c1cccc(Cl)c1,1.5,.
Clc1cccc(CN2C3=NCCCN3c3ccccc32)c1,0.91,-0.58
CCOc1cc(C2C(C(=O)OCc3ccccc3)=C(C)NC3=C2C(=O)CCC3)ccc1O (stereo not drawn),2.8,-2.7
Cc1nc(C)c(-c2csc(Nc3ncccn3)n2)s1,1.6,3.8
Cc1ccsc1CN(C(=O)c1ccc(Br)cc1)C1CCS(=O)(=O)C1 (stereo not drawn),1.1,0.81
CN1CCN(C(c2ccccc2)c2oc3ccccc3c2NC(=O)c2cccs2)CC1 (stereo not drawn),-0.45,-1.3
O=C(CSc1nc2ccccc2nc1N1CCCC1)NCc1ccc2c(c1)OCO2,1.1,-0.75
CCc1nnc2c(Nc3cc(OC)c(Cl)cc3OC)nc3ccccc3n12,0.59,-1.3
Cc1cc2nc(C)n(Cc3ccccc3)c2cc1C,-0.1,0.58
O=C(NCc1cccs1)C(=O)NCC(c1ccco1)S(=O)(=O)c1cccs1 (stereo not drawn),2.1,.
CCC(=O)Nc1nc2nc(C(C)C)cc(=O)n2[nH]1,.,-0.59
CSc1c(CC(=O)Nc2ccccc2)n(C)c2ccccc12,-1.5,-0.26
# (next part)
SMILES,HIV TAR-Tat,CDC25B-CDK2 inh
O=C(O)CCC(=O)Nc1cc(Br)c2c(c1)OCCO2,.,0.61
C=CCOC(=O)C1=C(C)N=C2SCCC(=O)N2C1c1ccc(OCCC)cc1 (stereo not drawn),.,1.9
CCN(CC)c1ccc(/C=N/Nc2nc(-c3cc4cccc(OC)c4oc3=O)cs2)c(O)c1,.,-3.6
Cc1cc(C)cc(OCCCCc2c(C)n[nH]c2C)c1,-0.5,-0.67
CC1=C(C(=O)OC2CCCCC2)C(c2ccc(Cl)cc2)C2=C(CCCC2=O)N1 (stereo not drawn),-0.39,-1.3
CSc1ccccc1NC(=O)CSc1nc2ccccc2o1,.,-2.3
Cc1oc2ncnc(N3CCOCC3)c2c1C(=O)NCc1ccco1,2.1,.
Cc1cc(C)n2nc(NCc3ccc(F)cc3)nc2n1,1,1.1
O=C1CC2(CCCCC2)Oc2ccc(O)cc21,.,-1.9
CCC[C@@H]1C[C@@H](C(=O)N[C@@H]([C@H]2O[C@H](SC)[C@H](O)[C@@H](O)[C@H]2O)[C@@H](C)O)N(C)C1,1.8,.
CC(C)(C)C(=O)n1nc(-c2ccc(Cl)cc2)nc1N,0.3,-1.3
CCOc1ccc(Nc2c3c(nc4nncn24)CCC3)cc1,0.89,0.41
COC(=O)c1ccc(CS(C)(=O)=O)cc1,.,-1
O=C1CCCc2cc(S(=O)(=O)N3CCN(C(=O)c4ccco4)CC3)ccc2N1,1.9,.
Cc1ccc(-c2nc3ccccc3[nH]2)cc1N,1.1,-3
Cc1ccc(C(=O)c2cnc3cc4c(cc3c2N2CCCC2)OCCO4)cc1,1.5,-0.18
Cc1c(C(=O)N(Cc2ccccc2)C2CCS(=O)(=O)C2)oc2ccccc12 (stereo not drawn),2.5,-0.12
O=C(OCCN(C1=NS(=O)(=O)c2ccccc21)c1ccccc1Cl)c1ccncc1,.,-0.34
CCCCC(=O)N(c1ccc(C)cc1)C1C=CS(=O)(=O)C1 (stereo not drawn),1.5,-1.2
CCCNc1ncnc2c1cnn2-c1cc(Cl)ccc1C,1.4,.
Nc1cccc2[nH]c(-c3ccccc3)nc12,-0.41,-1.4
O=C(CSc1ccc(F)cc1)Nc1nc(-c2cccs2)cs1,0.04,.
CC(=O)Nc1ncc(Cc2cccc(C(F)(F)F)c2)s1,.,0.13
O=C(Nc1ccc(F)cc1)C1CCCN(c2cnccn2)C1 (stereo not drawn),0.77,-0.73
O=C(Cn1c(=O)oc2cc(Cl)ccc21)N1CCN(c2ccc(N3CCOCC3)nn2)CC1,1.7,.
# Next results follow:
SMILES,HIV TAR-Tat,CDC25B-CDK2 inh
CC(=O)N1N=C(c2cccs2)OC1c1cc(-c2ccccc2)nc2ccccc12 (stereo not drawn),1.2,.
O=C(C1CCCN1c1nnc(N2CCCC2=O)s1)N1CCN(c2cccc(Cl)c2)CC1 (stereo not drawn),1.9,.
CC(NC(=O)CCCn1ncn2c(cc3occc32)c1=O)c1ccc2c(c1)OCCO2 (stereo not drawn),0.92,-1.5
CC1CCCN(C(=O)C2CCC(Cn3c(=O)[nH]c4ccsc4c3=O)CC2)C1 (stereo not drawn),1.4,.
O=C(CCc1ccc(O)cc1)N/N=C/C=C/c1ccccc1,.,-1.1
CC1=C(C(=O)Nc2ccc(Cl)cc2C(=O)NCc2ccco2)SCCO1,2.8,.
COc1ccc(Nc2c(-c3ccc(N4CCOCC4)cc3)nc3cnccn23)cc1OC,-7.3,-7.1
CC(C)c1ccc(CNc2nc(-c3ccco3)nn2S(=O)(=O)c2ccc(F)cc2)cc1,1.9,-2.5
CCCCCCCCCCCCCCCCCCN=Cc1c(O)[nH]c2ccccc12,.,-2.5
O=C(CCC1=NS(=O)(=O)c2ccccc2N1)Nc1ccc(Oc2ccccc2)cc1,0.61,.
CSC1=NCN(C(C)(C)C)CN1,.,-0.22
Cc1ccc(-c2cn(-c3ccc(F)cc3)c(=S)[nH]2)cc1,.,-0.2
Cc1cc(C)n2ncc(C(=O)NC3CCCCC3)c2n1,-0.24,.
COc1cc(C2NC(=O)NC(C)=C2C(=O)OCC(F)(F)F)cc(Cl)c1O (stereo not drawn),.,0.94
Cn1c(=O)c2c(nc3n2CC(=O)N3c2cccc(Cl)c2)n(C)c1=O,.,-1

# Among those listed so far, these contain an NH in an aromatic ring.
SMILES,HIV TAR-Tat,CDC25B-CDK2 inh
O=C(CSc1nc(-c2ccccc2)cc(=O)[nH]1)NC1CCCC1,-0.03,1.7
Cc1ccc(C)c(N2CCN(S(=O)(=O)c3ccc(-c4ccc(=O)[nH]n4)s3)CC2)c1,0.32,.
O=C(NCc1cccs1)c1c[nH]c2ccc(S(=O)(=O)Nc3ccc4c(c3)OCCO4)cc2c1=O,0.64,.
NC(=O)c1nc(-c2ccccc2Cl)nc2c1[nH]c(=O)n2-c1cccc(Cl)c1,0.98,.
CCc1ccc(-n2c(SCc3cc(=O)n4c(C)cccc4n3)nc3[nH]ncc3c2=O)cc1,.,-2.4
C=CCc1c(C)nc(N2CCSCC2)[nH]c1=O,.,-0.89
Cc1ccc2nc(C3=C(O)CN(CCCOC(C)C)C3=N)[nH]c2c1,-0.03,-2.1
Cc1ccc(Cc2c(C)nc3nc(CO)[nH]n3c2=O)cc1,-2.2,-0.65
CCC(=O)Nc1nc2nc(C(C)C)cc(=O)n2[nH]1,.,-0.59
Cc1cc(C)cc(OCCCCc2c(C)n[nH]c2C)c1,-0.5,-0.67
Cc1ccc(-c2nc3ccccc3[nH]2)cc1N,1.1,-3
Nc1cccc2[nH]c(-c3ccccc3)nc12,-0.41,-1.4
CC1CCCN(C(=O)C2CCC(Cn3c(=O)[nH]c4ccsc4c3=O)CC2)C1 (stereo not drawn),1.4,.
CCCCCCCCCCCCCCCCCCN=Cc1c(O)[nH]c2ccccc12,.,-2.5
Cc1ccc(-c2cn(-c3ccc(F)cc3)c(=S)[nH]2)cc1,.,-0.2
